High-throughput results (PubChem BioAssay)
Bead autofluor = compound fluorescence in toxin protease inhibitor counterscreen. compound autofluorescence counterscreen, microsphere flow cytometry; stronger effect = higher value. fluorescence intensity (test concentration not listed). 360,000 compounds, 3.1% hits. AID 624483;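 active = at least 3 SD above the mean of all compounds, about 16000 in these data; inconclusive = too few beads counted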;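 also: 100 nL of 1 mM stock went into each well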
RN4220 kill = kills Staphylococcus aureus RN4220 | S. aureus RN4220 growth, OD600, 16 h | inhibition, % (test concentration not listed) | 330,000 compounds, 0.33% hits | AID 1259311;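 active = z-score of -3 or lower and OD600 up to 0.18 on both plates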;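 also: plate controls were untreated cells for no effect and reference antibiotic for full effect; stock transfer was 100 nL into about 80 µL; one replicate is shown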
Sa ugtP lethal = kills S. aureus RN4220 lacking UgtP; S. aureus RN4220 ugtP deletion, OD600 growth, 16 h; some inactives read as strong as hits; growth inhibition, % (no concentration beside the values); 330,000 compounds, 0.54% hits;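 active = z-score under -3 and OD600 up to 0.15 on both plates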;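 also: plate controls were untreated wells for no effect and antibiotic for full effect; wells of about 80 µL received 100 nL stock; the first replicate is given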
Mtb hypoxia inh = inhibitors of hypoxia-regulated fluorescent reporter in Mycobacterium tuberculosis; fluorescence inhibition, % (test concentration not listed); 300,000 compounds, 0.1% hits; M. tuberculosis hypoxia-regulated fluorescent reporter, fluorescence; AID 1159583;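 active = 35 to 45% if threefold the growth effect, above 45% if 1.5-fold the growth effect; inactive = the rest, general growth blockers included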;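 also: wells of about 50 µL received 100 nL stock; 0% = vehicle wells and 100% = reference inhibitor wells; whole bacteria with a GFP reporter of the hypoxia response; strong numbers were not always called active; many hits fall short of the cut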
PrP UTR inh = inhibition of PrP 5' UTR reporter expression. 340,000 compounds, 0.35% hits. cell-based PrP 5' UTR mRNA reporter, plate reader. inhibition, % (test concentration not listed);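 active = every replicate at 50% or more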;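 also: 0 = median of the neutral control wells; tested in H4 reporter cells; numbers are from one replicate; inactives centre near -14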
BJeLR viability = BJeLR cell viability loss | inhibition, % (test concentration not listed) | BJeLR (HRASV12) viability, CellTiter-Glo ATP luminescence, 48 h; reference of the scale not given here | 300,000 compounds, 0.17% hits;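 active = replicate mean above 50%; inconclusive = above 50% but judged a plate artefact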;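 also: 50 nL library stock added to about 25 µL; numbers are from one replicate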
Mtb hypoxia inh growth = second read-out of Mtb hypoxia inh, no call of its own (marks repeat the call); growth inhibition, %; measured here: M. tuberculosis growth (absorbance);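 0% = vehicle and 100% = reference antibiotic; read after six days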
Starred values were filed as active, the others as inactive; ? = inconclusive; · = no result given.

Start of the listing, in advance, 2 compounds:
SMILES	Bead autofluor	RN4220 kill	Sa ugtP lethal	Mtb hypoxia inh	Mtb hypoxia inh growth	PrP UTR inh	BJeLR viability
C=CCn1c(-c2ccc(Cl)cc2)c[nH]c1=S	3030	2.8	9	11	6	-40	9
Cc1ccc(C)c(S(=O)(=O)N2CCN(C(=O)c3ccccc3Cc3ccccc3)CC2)c1	7000	25	-7	9	11	-17	13

This part in full (from the top)
SMILES	Bead autofluor	RN4220 kill	Sa ugtP lethal	Mtb hypoxia inh	Mtb hypoxia inh growth	PrP UTR inh	BJeLR viability
C=CCn1c(-c2ccc(Cl)cc2)c[nH]c1=S	3030	2.8	9	11	6	-40	9
Cc1ccc(C)c(S(=O)(=O)N2CCN(C(=O)c3ccccc3Cc3ccccc3)CC2)c1	7000	25	-7	9	11	-17	13
CSc1ncccc1C(=O)OCC(=O)Nc1ccc2c(c1)OCO2	3209	-0.7	7	-1	7	-26	1
CN(C(=O)COC(=O)/C=C/c1ccc(Cl)c(Cl)c1)c1c(N)n(Cc2ccccc2)c(=O)[nH]c1=O	4146	5.2	7	0	-6	-8	7
O=C(COC(=O)c1cc(S(=O)(=O)N2CCOCC2)ccc1Cl)NCc1ccccc1	3512	4.3	5	2	6	-20	·
O=C(CNS(=O)(=O)c1ccc(Br)cc1)N1CCN(c2ccc(F)cc2)CC1	4152	-6.7	0	·	·	-3	-2
Nc1nc(NCc2ccco2)nn1-c1ccccc1	3833	-1.3	-5	-6	3	-6	-5
NCCCCCC(=O)O	5817	10	-2	7	-3	-1	·
Cc1ccc(C)c(C(=O)COC(=O)c2cc(Cl)nc3ccccc23)c1	2426	9.4	28	1	-3	-18	4
O=C1OC(N2C(=O)CC[C@H]2C(=O)NCC2CCCO2)c2ccccc21 (stereo partly specified)	5688	1.1	-8	·	·	-35	-8
COc1cccc(OCCNc2cc(N3CCOCC3)ccc2[N+](=O)[O-])c1	2021	-1.1	-23	-7	17	-36	-14
COC(=O)c1ccc(COC(=O)C2CC(O)CN2S(=O)(=O)c2ccc([N+](=O)[O-])cc2)cc1 (stereo unspecified)	·	4.1	2	7	5	·	·
CCn1c(O)c(C=Nc2ccccc2)sc1=S	·	6.4	6	6	-8	·	5
COc1ccccc1CNC(=O)[C@@H]1CCCN1S(=O)(=O)c1ccc(Cl)cc1	3645	0.9	11	-3	2	-17	-6
CN(Cc1ccccc1)Cc1c(O)ccc2ccccc12	·	6.3	3	4	0	-23	3
O=C(O)CCN(CCC(=O)O)c1ccccc1	3938	3.5	0	1	8	-23	-1
CC1=C(c2ccccc2)C=NNCC1=O	?	0.5	-2	-8	5	-17	·
N#CC(=Cc1ccc(C(=O)O)cc1)c1ccccn1	·	-2.2	-4	0	9	·	·
CS(=O)(=O)N1CCN(C(=O)Cc2ccc(Br)cc2)CC1	3397	4.1	1	-2	6	-15	-7
Cc1ccc(S(=O)(=O)NCc2ccccc2)cc1C(=O)N1CCN(S(=O)(=O)c2ccccc2)CC1	?	6.0	8	7	2	-24	·
CCN(c1ccc(N=Cc2c(O)n(Cc3ccc(OC)cc3)c(=O)c3ccccc23)cc1)C(C)C	55670*	4.1	14	0	10	-13	·
Cc1ccc(C2C(C#N)=C(N)Oc3cc(N)ccc32)cc1 (stereo unspecified)	3919	7.0	1	5	-8	-27	4
COCCCn1c(-c2ccc(Cl)cc2)n[nH]c1=S	3722	1.8	10	·	·	-12	-1
COc1cccc(CNC(=O)CCNC(=O)N2CCn3c2nc2ccccc23)c1	6015	2.8	4	11	2	-2	6
Cc1ccc(C(=O)N2CCN(S(C)(=O)=O)C2)cc1	2870	2.8	8	7	11	-17	-6
O=C(NCc1ccc(F)cc1)C1CCCN(c2cnccn2)C1 (stereo unspecified)	6032	-0.1	1	3	2	1	2
O=C1[C@H]2[C@@H](c3ccc(F)cc3)N3C(=O)N(c4ccc(C(F)(F)F)cc4)C(=O)[C@@]3(Cc3ccccc3)[C@H]2C(=O)N1C1CCCCC1	4147	·	·	·	·	-24	3
C=CCCN([C@H](CO)Cc1ccccc1)S(=O)(=O)c1ccccc1Br	3998	7.4	-10	-14	4	-10	·
Cc1ccnc(SCCn2c(N3CCOCC3)nc3c2c(=O)[nH]c(=O)n3C)n1	4251	-9.7	8	·	·	-8	·
CCOC(=O)c1c(C)[nH]c(C(=O)COC(=O)C2CC2C)c1C (stereo unspecified)	4791	-0.2	10	·	·	-108	7
CN(C)CC1CCCCC1OC(=O)/C=C/c1ccc(Cl)cc1Cl (stereo unspecified)	4099	24	3	20	17	-48	-17
O=C(NCCN1CCN(c2ccccc2)CC1)C1CCN(S(=O)(=O)c2cccs2)CC1	4947	1.1	4	·	·	-21	·
Cc1cc(C)n(-c2ccc(C(=O)O)cc2[N+](=O)[O-])n1	4479	1.5	5	7	-1	3	4
Oc1ccccc1C1OCC2(CO1)COC(c1ccccc1O)OC2 (stereo unspecified)	10290	-3.5	-9	-6	-6	-6	-10
CCCS(=O)(=O)N1CCC(C(=O)NCCc2ccccc2)CC1	2849	-11	3	12	6	-5	·
CN(C)C(Cc1ccccc1)C(=O)c1ccc(-c2ccccc2)cc1 (stereo unspecified)	16369*	7.0	83	8	2	-26	-16
COc1ccc(-c2cnnc(N/N=C/c3ccc(OC)c(OC)c3)n2)cc1	7606	·	·	·	·	-18	-4
O=C(N=Nc1c(O)[nH]c2ccc(F)cc12)c1ccc(NS(=O)(=O)c2cccs2)cc1	3754	3.4	-10	9	10	-5	·
CN(C(=O)c1cccc(NC(=O)c2ccccc2)c1)C1CCCCC1	4630	3.2	7	-2	1	-13	11
CCN1C(=O)S/C(=C/c2cn(C)c3ccccc23)C1=O	2601	6.8	9	-1	1	-8	3
Cc1cccc(C(=O)NCC(=O)Nc2ccc(S(=O)(=O)Nc3nc(C)cc(C)n3)cc2)c1	6418	1.5	0	6	10	-17	1
O=C(NCc1ccccc1)c1ccc(S(=O)(=O)Nc2cccc(C(F)(F)F)c2)cc1	5424	-2.9	-9	15	3	-12	9
CCOC(=O)c1c(-c2ccccc2)csc1NC(=O)c1ccc(S(=O)(=O)N2CCOCC2)cc1	2616	0.7	1	-1	0	-66	2
Cc1cc(=O)oc2c(C)c(OC(C)C(=O)Nc3ccc(N4CCC(C)CC4)cc3)ccc12 (stereo unspecified)	5170	11	4	1	8	-7	-4
Cc1cc(C)c(C#N)c(SCCS(=O)(=O)Cc2ccc(Cl)cc2)n1	3310	8.6	-6	10	5	-18	-12
Cc1cc(C)cc(N(CC(=O)NC2CCCC2)C(=O)CCC(=O)Nc2cc(C)ccn2)c1	3855	0.0	-1	8	20	-13	-2
O=C(Nc1ccc(N2CCOCC2)cc1)Nc1cnsn1	4044	-1.7	8	·	·	-41	6
COc1ccc2ccccc2c1CN1CCSCC1	13289	4.5	-4	-4	2	-15	4
CC(C(=O)Nc1cc(Cl)cc(Cl)c1)N1CCCC1 (stereo unspecified)	3105	0.1	7	-3	-2	-6	5
CN(Cc1cc2ccccc2[nH]c1=O)C(=O)COc1ccccc1	5543	4.3	-2	9	-5	-31	-12
O=C(CSc1nnc(Cc2cccs2)n1-c1ccccc1)Nc1ccc2c(c1)OCCO2	3211	15	-1	-4	4	-1	4
Cc1ccc(S(=O)(=O)Nc2ccccc2CNc2cccc(C)n2)cc1	2270	5.5	-14	7	-1	-20	5
CCOC(=O)N1CCN(C(=O)c2nn(C)c3c2CSc2ccccc2-3)CC1	4322	1.4	5	4	5	-16	1
COc1ccccc1C(=O)OCC(=O)Nc1ccc(OC(F)F)cc1	2878	4.0	-2	·	·	-23	-9
Cc1cccc2c1cnn2C(=O)CCC(=O)NCC(C)c1ccccc1 (stereo unspecified)	6492	11	1	-3	3	2	2
Cn1c(N/N=C2\CCCc3ccccc32)nc2c1c(=O)n(Cc1ccccc1)c(=O)n2C	2001	·	·	·	·	-9	7
C[C@@H]1CN([C@@H](C)CO)C(=O)Cc2cc(NS(=O)(=O)c3ccccc3)ccc2O[C@H]1CN(C)Cc1ccncc1	4115	-13	-10	-6	9	-24	·
CCCNC(=O)OCCC12CC3CC(CC(C3)C1)C2	2172	5.7	9	·	·	-60	0
CCN(Cc1ccccc1)C(=O)Cc1c[nH]c2ccccc12	5730	4.0	2	18	9	-5	7
O=[n+]1cc(-c2ccc(Br)cc2)n([O-])c2c1CCC2	2638	1.1	0	6	3	-14	5

New compounds follow
SMILES	Bead autofluor	RN4220 kill	Sa ugtP lethal	Mtb hypoxia inh	Mtb hypoxia inh growth	PrP UTR inh	BJeLR viability
Cn1c(CC(=O)c2ccc(Br)cc2)[n+](C)c2ccccc21	4712	2.5	3	-1	-5	5	1
COCc1cc(C)c(C#N)c(=S)[nH]1	2750	4.5	-2	·	·	-15	-2
COc1ccc(CCNc2nc(-c3ccc(O)cc3)cs2)cc1OC	4363	-0.9	-6	1	11	-7	-3
O=C(OCCCN=C1NS(=O)(=O)c2ccccc21)C1CC(=O)N(c2ccc(Cl)cc2)C1 (stereo unspecified)	4614	0.2	7	·	·	-26	-2
CCOC(=O)CCCNC(=O)COC(=O)c1cccc(F)c1	4297	8.9	4	2	7	4	8
Cc1ccc(CNC(=O)COC(=O)c2ccc(S(=O)(=O)NCc3ccco3)cc2)cc1	3966	6.5	3	2	2	-74	·
COc1cccc(N(CC(=O)NC2CCCCC2)C(=O)Cn2nnc(-c3ccc(C)o3)n2)c1	6064	0.2	2	-7	-1	-12	-6
O=C(Oc1ccc(C(=S)N2CCOCC2)cc1)c1ccc(Br)cc1	2212	1.8	11	5	-3	-12	-3
CCC(=O)n1nc(-c2cccnc2)nc1NCc1ccccc1	3941	2.0	4	11	9	-12	11
O=C(CCS(=O)(=O)c1cccs1)Nc1ccc(C(=O)NC2CCN(Cc3ccccc3)CC2)cc1	4781	2.0	-4	10	7	-15	-3
Cc1ccc(NC(=S)NN2CCN(C)CC2)cc1	7144	3.0	2	6	12	-26	0
O=C(NCC(c1ccco1)N1CCc2ccccc2C1)c1c(F)cccc1F (stereo unspecified)	6070	0.0	6	5	11	-3	7
CC(=O)Nc1c(-c2ccccc2)nc2ccc(Cl)cn12	7040	2.5	3	-1	3	-12	4
COc1ccc(CNC(=O)c2ccc(NC(=O)C3=CSCCO3)cc2)cc1	4074	-1.1	-8	-13	0	-11	6
Cc1cc(C)nc(NC(=O)c2cc(-c3ccc4c(c3)OCO4)nc3ccccc23)c1	5622	-6.2	-16	1	-14	-6	8
CCCCOc1ccc(C(=O)Nc2ccc3c(c2)C(=O)NC3=O)cc1	4334	5.4	-12	3	1	11	7
Cc1cc(C)n2c(Br)c(CSc3nc4ccccc4s3)nc2n1	2553	17	-2	-15	-7	-39	-2
CC(C)(C)c1ccc(OCC(=O)NN=Cc2cc(Br)ccc2OC(=O)c2ccco2)cc1	·	-30	5	-1	-1	·	·
COc1ccc(C(C2C(=O)CC(C)(C)CC2=O)C2C(=O)CC(C)(C)CC2=O)cc1COCC(F)(F)F	9730	4.7	8	2	8	-12	-2
Cc1cc(C)n2nc(-c3cnn(C)c3C(F)(F)F)cc2n1	19076*	5.3	-1	6	5	-19	-4
CC1=NNC(=O)C1CCC(=O)N/N=C(\C)c1ccc(Cl)cc1 (stereo unspecified)	4183	·	·	·	·	-15	-2
COc1cc(NC(=O)COC(=O)c2ccc([N+](=O)[O-])s2)cc(OC)c1OC	2700	18	9	11	1	-22	·
CCOC(=O)CSc1nnc(-c2nnc(SCC(=O)OCC)n2CC)n1CC	16806*	2.2	3	9	3	-9	11
COc1ccc(CC(=O)Nc2sc3c(c2C(N)=O)CCCC3)cc1OC	5821	3.7	0	5	6	-11	-8
O=C(NCCS(=O)(=O)N1CCN(c2ccccc2F)CC1)c1ccc(Br)o1	4911	4.1	8	-7	-2	-12	-1
CN(C)C1(CNC(=O)c2ccc(NS(=O)(=O)c3ccc(Cl)c(Cl)c3)cc2)CCCCC1	4159	1.5	19	-2	-4	-27	·

3 records picked at random from those above, as already listed:
SMILES	Bead autofluor	RN4220 kill	Sa ugtP lethal	Mtb hypoxia inh	Mtb hypoxia inh growth	PrP UTR inh	BJeLR viability
CC1=NNC(=O)C1CCC(=O)N/N=C(\C)c1ccc(Cl)cc1 (stereo unspecified)	4183	·	·	·	·	-15	-2
O=C(NCCS(=O)(=O)N1CCN(c2ccccc2F)CC1)c1ccc(Br)o1	4911	4.1	8	-7	-2	-12	-1
COc1cc(NC(=O)COC(=O)c2ccc([N+](=O)[O-])s2)cc(OC)c1OC	2700	18	9	11	1	-22	·
